Assay outcomes from PubChem.
LASV entry inh: qHTS for Inhibitors of binding or entry into cells for Lassa Virus; Lassa virus pseudotype entry inhibition, cell reporter; control for the full effect not named in the record; Potency, µM (titrated, usually from 37.9 µM), without a hit: at the top dose activity change, negative = inhibition, actives largely listed as inhibitors; 300,000 compounds, 1.2% hits; AID 540256, 2011; active means well fitted inhibition curve with a large enough effect; inconclusive means small, poorly fitted or top-dose-only effect, or effect the other way; inactive means flat fitted curve, though single readings scatter; tested in HEK293 cells; note: % is set by controls: 0 for no effect and ±100 for the full control effect; nearly all actives have a fitted effect of over 50% in size; luciferase read-out
Cruzain noTriton: qHTS Assay for Promiscuous and Specific Inhibitors of Cruzain (without detergent). purified cruzain, Z-FR-AMC fluorescence, no detergent. Potency, µM, for the others: max response, negative = inhibition, most hits filed as inhibitors. 200,000 compounds, 2.3% hits. AID 1476, 2009; active = well fitted curve in the direction sought with a large enough effect; inconclusive = small, poorly fitted or top-dose-only effect, or another doubt; inactive = no such curve, though single readings can be large; an effect the other way counts as inactive or inconclusive;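 note: plate controls were enzyme without inhibitor for no effect and buffer without enzyme for full effect; nearly all actives have a fitted effect of over 40% in size; top concentration of the series not given in the record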
Target sequence (P25779 123-467 limits assumed): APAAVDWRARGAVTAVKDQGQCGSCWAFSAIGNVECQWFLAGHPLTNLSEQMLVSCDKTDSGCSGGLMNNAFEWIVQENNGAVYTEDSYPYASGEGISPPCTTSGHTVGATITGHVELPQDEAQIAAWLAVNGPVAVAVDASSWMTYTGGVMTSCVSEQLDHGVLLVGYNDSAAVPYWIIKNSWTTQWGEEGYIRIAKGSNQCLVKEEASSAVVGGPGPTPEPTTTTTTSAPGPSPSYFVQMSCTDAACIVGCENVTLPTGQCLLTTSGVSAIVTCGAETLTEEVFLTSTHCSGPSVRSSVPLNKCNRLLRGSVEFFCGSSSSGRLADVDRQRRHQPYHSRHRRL
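Purified cruzain at 1.5 nM, pre-incubated 15 min with compound at room temperature in 100 mM sodium acetate pH 5.5, 5 mM DTT, 0.00005% Triton X-100. Reaction started with 2 uM Z-FR-AMC; AMC fluorescence increase over 60 s gives rate.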
Marburg entry inh: qHTS for inhibitors of binding or entry into cells for Marburg Virus | 300,000 compounds, 1.8% hits | Potency, µM (series often up to 37.8 µM), inactives show at the top dose activity change, negative = inhibition, most hits filed as inhibitors | Marburg virus pseudotyped entry inhibition, cell reporter; control for the full effect not named in the record; about a third of the inactives were read at about 46 µM; active = well fitted inhibition curve with a large enough effect; inconclusive = small, poorly fitted or top-dose-only effect, or effect the other way; inactive = flat fitted curve, though single readings scatter; tested in HEK293 cells; about a fifth of its hits are not listed in these tables; note: % is set by controls: 0 for no effect and ±100 for the full control effect; luciferase read-out
NS1 inh: qHTS Assay for Inhibitors of Influenza NS1 Protein Function | S. cerevisiae slowed by influenza A NS1, growth recovery by OD600 | Potency, µM (doses to about 46.1 µM), inactives show top-dose activity, positive = more growth | 270,000 compounds, 0.4% hits; note: actives are rising curves; nearly all actives have a fitted effect of over 50% in size
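OD600 was taken as the measure of yeast growth restored by compound in an NS1-expressing S. cerevisiae strain. Cells had been washed out of glucose medium and diluted 1:100 into galactose -URA medium, pH 6.0.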
Cruzain inh Det: qHTS Assay for Promiscuous and Specific Inhibitors of Cruzain (with detergent); Cruzipain (Trypanosoma cruzi), P25779; purified cruzain, Z-FR-AMC fluorescence, 0.01% Triton; Potency, µM, for the others: max response, negative = inhibition, most hits filed as inhibitors; 200,000 compounds, 0.43% hits; active = well fitted curve in the direction sought with a large enough effect; inconclusive = small, poorly fitted or top-dose-only effect, or another doubt; inactive = no such curve, though single readings can be large; an effect the other way counts as inactive or inconclusive;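 note: plate controls were neutral wells for no effect and buffer without enzyme for full effect; nearly all actives have a fitted effect of over 40% in size; top concentration of the series not given in the record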
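15 min RT preincubation of 1.5 nM cruzain with compound, then 2 uM Z-FR-AMC added; kinetic AMC fluorescence, 60 s delta. Triton X-100 0.01%, pH 5.5.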
RE007 growth inh: qHTS Assay for Inhibitors of the HIV-1 protein Vpr; S. pombe RE007 Vpr strain, BacTiter-Glo ATP luminescence, 24 h; control for the full effect not named in the record; AID 651644, 2012; Potency, µM (titrated, usually from 92.2 µM), for inactives: at the highest dose activity change, negative = less growth; 360,000 compounds, 0.21% hits; active = well fitted falling curve with a large enough effect; inconclusive = small, poorly fitted or top-dose-only effect; inactive = no such curve, though single readings can be large or run the other way;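 note: % is set by controls: 0 for no effect and ±100 for the full control effect; nearly all actives have a fitted effect of over 50% in size; the assay follows cell death caused by Vpr and the record does not say whether a fall means rescue or toxicity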
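Fission yeast strain RE007, carrying one chromosomally integrated HIV-1 vpr copy, was seeded at OD 0.01 in PMG+AL medium with 23 nL pinned compound. After 24 h at 30 °C and 99% humidity, viability was read by BacTiter-Glo luminescence.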
StopGo reporter: High Throughput Screening for Foot and Mouth Disease Virus Antivirals; human cells with a luciferase reporter of 2A StopGo recoding; control for the full effect not named in the record; Potency, µM (doses to about 57.9 µM), for the others: top-dose signal change, negative = less light; 410,000 compounds, 1.2% hits; AID 1159524, 2015; active = well fitted falling curve with a large enough effect; inconclusive = small, poorly fitted or top-dose-only effect; inactive = no such curve, though single readings can be large or run the other way; tested in HEK293T cells; note: % is set by controls: 0 for no effect and ±100 for the full control effect; nearly all actives have a fitted effect of over 45% in size; luciferase light after 4 h
SARS PLpro yeast: qHTS of Yeast-based Assay for SARS-CoV PLP | Potency, µM (top dose mostly 32.9 µM), without a hit: top-dose activity, positive = growth rescue | 330,000 compounds, 0.19% hits | S. cerevisiae expressing SARS-CoV PLpro, growth rescue; control for the full effect not named in the record; note: 0% is about no effect; nearly all actives have a fitted effect of over 55% in size; growth read by luminescence after 48 h
* hit, by the source's call; [ ] = dose if it differs, or a comment. Unless noted, calls come from the whole dose curve; as a rule, active means well fitted rising curve with a large enough effect; inconclusive means small, poorly fitted or top-dose-only effect; inactive means no such curve, though single readings can be large or run the other way. Potency is the fitted concentration of half-maximal effect.

O=C(CCCn1cc([N+](=O)[O-])cn1)N1CCCCC1 was read as LASV entry inh 22.6%, Marburg entry inh 6.9%, RE007 growth inh 6.4%, StopGo reporter 13.2% and SARS PLpro yeast 1.9%.
`Cc1cccc(/C=C2/SC(=O)N(Cc3ccccc3)C2=O)n1` gave LASV entry inh -9.1%, Cruzain noTriton 1.5%, Marburg entry inh 1.2%, NS1 inh 0.7%, Cruzain inh Det -3.2%, RE007 growth inh 6.3%, StopGo reporter -0.1% and SARS PLpro yeast -3.2%.
For O=C(NC1(C(F)(F)F)N=C2SCCN2C1=O)c1ccccc1F (centres undefined) the results were NS1 inh 5.0%, RE007 growth inh -1.3%, StopGo reporter -2.6% and SARS PLpro yeast 1.4%.
`O=C(CN1C(=O)c2ccccc2S1(=O)=O)N1CCCCC1` gave LASV entry inh 13.5%[46.1 µM], Marburg entry inh inconclusive, NS1 inh 3.0%, RE007 growth inh -3.0%, StopGo reporter 10.3% and SARS PLpro yeast 0.6%.
Screening COc1ccc(N(C(C)C(=O)N(C)Cc2ccccc2)S(C)(=O)=O)cc1 (centres undefined) returned NS1 inh -6.8%, RE007 growth inh 10.9%, StopGo reporter 12.1% and SARS PLpro yeast -9.2%.
For COc1ccc(-n2c(=O)c3c4c(sc3n(Cc3c(F)cccc3Cl)c2=O)CN(C(C)=O)CC4)cc1OC the results were LASV entry inh -10.1%[46.1 µM], Cruzain noTriton 1.3%, Cruzain inh Det 2.7% and StopGo reporter -16.3%.
CCCn1c(CNC(=O)c2cccs2)nc2ccccc21 was read as Cruzain noTriton 6.8%, NS1 inh -4.9%, Cruzain inh Det -0.6%, RE007 growth inh -4.4%, StopGo reporter -22.5% and SARS PLpro yeast 11.5%.
Screening CCOc1ccc(OCC)c(NC(=O)CSCC(=O)O)c1 returned LASV entry inh -4.8%, Cruzain noTriton 0.1%, Marburg entry inh 10.1%, NS1 inh 7.2%, Cruzain inh Det 6.0%, RE007 growth inh 13.2%, StopGo reporter -6.5% and SARS PLpro yeast 5.1%.
COc1ccccc1NS(=O)(=O)c1ccc2c(c1)NC(=O)CC(=O)N2 was read as LASV entry inh 13.7%[46.1 µM], Marburg entry inh 27.8%[46.1 µM], NS1 inh 0.9%, RE007 growth inh -0.7%, StopGo reporter -1.0% and SARS PLpro yeast inconclusive.
`COc1ccc(OC)c(/C=C/c2nc3ccccc3c(=O)n2-c2ccc(F)c(Cl)c2)c1` gave LASV entry inh -0.9%[46.1 µM], Cruzain noTriton -5.6%, Cruzain inh Det 0.1% and StopGo reporter -14.1%.
`COc1cc(OC)cc(C(=O)OCC(=O)Nc2cccc(S(=O)(=O)NC3=NCCCCC3)c2)c1` gave LASV entry inh 17.6%, Marburg entry inh inconclusive, RE007 growth inh 5.1%, StopGo reporter 22.4µM* and SARS PLpro yeast -10.9%.
CCOc1ccc(/C=N/OCC(=O)Nc2cc(C)on2)cc1 was read as LASV entry inh 21.3%, Cruzain noTriton 12.2%, Marburg entry inh inconclusive, NS1 inh 7.0%, Cruzain inh Det 0.5%, RE007 growth inh -6.4%, StopGo reporter -8.6% and SARS PLpro yeast 15.5%.
CC(C)N(C)S(=O)(=O)c1ccc(NC(=O)CSC(=S)N2CCCC2)cc1 was read as LASV entry inh -2.2%[46.1 µM], Marburg entry inh 22.2%, RE007 growth inh 23.0%, StopGo reporter -1.2% and SARS PLpro yeast -1.5%.
O=C(CSc1ncn[nH]1)N1N=C2/C(=C\c3ccco3)CCCC2C1c1ccco1 (centres undefined) was read as LASV entry inh -14.9%[46.1 µM], Marburg entry inh -5.1%[46.1 µM], RE007 growth inh -7.0% and StopGo reporter -5.3%.
Cc1ccc(O)c(-c2cc(-c3ccccc3F)[nH]n2)c1 was read as LASV entry inh -1.7%, Cruzain noTriton -6.1%, Marburg entry inh 25.4%, NS1 inh 1.5%, Cruzain inh Det -8.8%, RE007 growth inh -17.9%, StopGo reporter 50.1%[activator] and SARS PLpro yeast -18.5%.
COc1ccc2c(c1)Cc1sc(NC(=O)c3cccc(C)c3)nc1-2 was read as LASV entry inh -0.2%[46.1 µM], Cruzain noTriton -29.9%, Marburg entry inh 8.3%[46.1 µM], Cruzain inh Det -6.2% and StopGo reporter 5.3%.
Screening Cc1nn(-c2ccccc2)c(Cl)c1/C=N/Nc1nc2ccccc2n1C returned LASV entry inh -24.0%, Cruzain noTriton -0.2%, Marburg entry inh -7.8%, NS1 inh inconclusive, Cruzain inh Det -8.2%, RE007 growth inh -21.0%, StopGo reporter 7.2% and SARS PLpro yeast 0.4%.
Screening O=C(O)c1cccc(NS(=O)(=O)c2ccc3c(c2)OCCCO3)c1 returned LASV entry inh -5.0%[46.1 µM], Marburg entry inh 3.1%[46.1 µM], RE007 growth inh 12.9%, StopGo reporter 6.9% and SARS PLpro yeast -5.4%.
For COC(=O)c1ccc2c(c1)NC(=O)C(N1CCCC1)S2 (centres undefined) the results were LASV entry inh 0.5%, Cruzain noTriton 2.0%, Marburg entry inh 9.7%, NS1 inh -4.5%, Cruzain inh Det 2.5%, RE007 growth inh 4.7%, StopGo reporter -3.7% and SARS PLpro yeast -1.7%.
`CCC(C(=O)O)n1cnc2scc(-c3ccc(C)c(C)c3)c2c1=O` (centres undefined) gave LASV entry inh 14.1%[46.1 µM], Marburg entry inh 2.3%[46.1 µM], NS1 inh 19.4%, RE007 growth inh 5.9%, StopGo reporter -7.5% and SARS PLpro yeast -6.3%.
`CC1=C(C(=O)N2CCN(c3ccccc3)CC2)C2(CCCCC2)OC1=O` gave LASV entry inh 29.3%[46.1 µM], Cruzain noTriton 7.5%, Marburg entry inh -12.3%[46.1 µM], Cruzain inh Det 0.0% and StopGo reporter -5.6%.
Screening COc1ccccc1C(C(=O)NC1CCCCC1)N(C(=O)c1csnn1)C1CC1 (centres undefined) returned LASV entry inh 11.8%, Marburg entry inh -16.0%[46.1 µM], NS1 inh 16.7%, RE007 growth inh -21.3%, StopGo reporter 25.5% and SARS PLpro yeast 1.3%.
CCOC(=O)c1cc2c(=O)n3ccccc3nc2n(CC2CCCO2)c1=NC(=O)/C=C/c1ccccc1 (centres undefined) was read as LASV entry inh inconclusive, Marburg entry inh -29.0%[46.1 µM], RE007 growth inh 7.1%, StopGo reporter -25.6% and SARS PLpro yeast 0.1%.
Screening O=C(NCCN1CCCC1)C1(S(=O)(=O)c2ccc(Cl)cc2)CC1 returned LASV entry inh 9.7%, Cruzain noTriton -5.4%, Marburg entry inh -5.5%, NS1 inh inconclusive, Cruzain inh Det -1.0%, RE007 growth inh -0.4%, StopGo reporter -19.8% and SARS PLpro yeast 10.1%.
Screening O=C(c1ccc(F)cc1)N1CCN(Cc2ccccc2Br)CC1 returned LASV entry inh -26.1%, Cruzain noTriton -3.9%, Marburg entry inh inconclusive, NS1 inh -10.8%, Cruzain inh Det -2.0%, RE007 growth inh -8.0%, StopGo reporter -10.8% and SARS PLpro yeast -0.3%.
For CCN(CC)CCOC(=O)c1cc2cc(COC)ccc2o1 the results were LASV entry inh -0.7%, Cruzain noTriton -2.0%, Marburg entry inh inconclusive, NS1 inh -2.3%, Cruzain inh Det 4.8%, RE007 growth inh 10.1%, StopGo reporter -7.6% and SARS PLpro yeast 0.8%.
`Cc1cc(C)c(C#N)c(SCc2cn3ccccc3n2)n1` gave LASV entry inh 16.2%, Cruzain noTriton 6.5%, Marburg entry inh 19.2%, NS1 inh inconclusive, Cruzain inh Det -11.9%, RE007 growth inh -7.1%, StopGo reporter -21.3% and SARS PLpro yeast 2.9%.
Screening COc1cccc2oc3cc(C#CC4(O)CCCCC4)ccc3c(=O)c12 returned NS1 inh -66.3%, RE007 growth inh 0.3%, StopGo reporter -26.7% and SARS PLpro yeast -19.4%.
`CCC(C)(C)NC(=O)C(c1ccc(OC)cc1)N(Cc1cccs1)C(=O)CCC(=O)Nc1cc(C)on1` (centres undefined) gave LASV entry inh inconclusive, Cruzain noTriton 22.1%, Marburg entry inh inconclusive, NS1 inh -6.6%, Cruzain inh Det -4.0%, RE007 growth inh 8.7%, StopGo reporter -14.1% and SARS PLpro yeast 7.2%.
`CCC(=O)Nc1nonc1-c1nc2ccccc2n1N(C(=O)CC)C(=O)CC` gave LASV entry inh 16.1%, Cruzain noTriton 0.8%, Marburg entry inh -2.7%, NS1 inh -13.8%, Cruzain inh Det -8.2%, RE007 growth inh 3.0%, StopGo reporter -11.4% and SARS PLpro yeast -1.6%.
For NNC(=S)NC1CCCCC1 the results were LASV entry inh inconclusive, Marburg entry inh 19.5%[46.1 µM], NS1 inh -1.0%, RE007 growth inh 2.7%, StopGo reporter -12.7% and SARS PLpro yeast 2.9%.
For CC(C)CNC(=O)c1cccc(NC(=O)COc2ccc([N+](=O)[O-])cc2)c1 the results were LASV entry inh inconclusive, Marburg entry inh inconclusive, NS1 inh 7.0%, RE007 growth inh -5.6%, StopGo reporter inconclusive and SARS PLpro yeast -0.2%.
`COc1cccc(NC(=O)Cc2nnc(SCC(=O)NC3=NCCS3)n2C)c1` gave LASV entry inh -0.5%[46.1 µM], Marburg entry inh -1.0%[46.1 µM], NS1 inh 2.7%, RE007 growth inh -17.2%, StopGo reporter -9.2% and SARS PLpro yeast -0.4%.
Screening CCCN(CCC)CCNC(=O)CN1C(=O)COc2ccc(S(=O)(=O)N3CCC(C)CC3)cc21 returned LASV entry inh 0.3%[46.1 µM], Cruzain noTriton 13.5%, Marburg entry inh 0.4%[46.1 µM], Cruzain inh Det -1.0% and StopGo reporter -12.6%.
`Cn1c(SCC(=O)N/N=C/C=C/c2ccccc2[N+](=O)[O-])nc2ccccc21` gave LASV entry inh -15.8%, Cruzain noTriton inconclusive, Marburg entry inh 29.8%, NS1 inh 9.8%, Cruzain inh Det -4.8%, RE007 growth inh -0.3%, StopGo reporter -20.5% and SARS PLpro yeast 10.9%.
Screening Cc1ccc2c(c1)C(c1ccncc1)=NNC(c1ccccc1)=N2 returned LASV entry inh 2.6%, Marburg entry inh 0.0%[46.1 µM], NS1 inh -1.0%, RE007 growth inh -3.1%, StopGo reporter 52.0%[activator] and SARS PLpro yeast -0.9%.
For Cc1cc(C)n(C(=O)c2ccccc2[N+](=O)[O-])n1 the results were LASV entry inh 11.7%, Cruzain noTriton -5.4%, Marburg entry inh 13.3%, NS1 inh -2.3%, Cruzain inh Det -3.3%, RE007 growth inh 2.1%, StopGo reporter -3.1% and SARS PLpro yeast 25.3%.
